# KCNQ2 enhance: potentiators of rat KCNQ2 potassium channel | Potassium voltage-gated channel subfamily KQT member 2 (Rattus norvegicus), O88943 | CHO-K1 KCNQ2, FluxOR thallium flux fluorescence; hits give high values | B-score at 10 µM | actives 0.54% (n = 310,000);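 active means fluorescence ratio B-score at least 3 SD of library B-scores, with initial fluorescence B-score within 3 SD, cut at about 5.3 in these data; same plate scores as AID 2156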;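 further: B-score of peak minus minimum over baseline fluorescence ratio after K+ and Tl+ stimulus; positive B-score means potentiation of KCNQ2 with more thallium influx and brighter signal; only the inactives scoring about 0 or higher are listed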
# Target sequence (O88943 whole entry, looked up): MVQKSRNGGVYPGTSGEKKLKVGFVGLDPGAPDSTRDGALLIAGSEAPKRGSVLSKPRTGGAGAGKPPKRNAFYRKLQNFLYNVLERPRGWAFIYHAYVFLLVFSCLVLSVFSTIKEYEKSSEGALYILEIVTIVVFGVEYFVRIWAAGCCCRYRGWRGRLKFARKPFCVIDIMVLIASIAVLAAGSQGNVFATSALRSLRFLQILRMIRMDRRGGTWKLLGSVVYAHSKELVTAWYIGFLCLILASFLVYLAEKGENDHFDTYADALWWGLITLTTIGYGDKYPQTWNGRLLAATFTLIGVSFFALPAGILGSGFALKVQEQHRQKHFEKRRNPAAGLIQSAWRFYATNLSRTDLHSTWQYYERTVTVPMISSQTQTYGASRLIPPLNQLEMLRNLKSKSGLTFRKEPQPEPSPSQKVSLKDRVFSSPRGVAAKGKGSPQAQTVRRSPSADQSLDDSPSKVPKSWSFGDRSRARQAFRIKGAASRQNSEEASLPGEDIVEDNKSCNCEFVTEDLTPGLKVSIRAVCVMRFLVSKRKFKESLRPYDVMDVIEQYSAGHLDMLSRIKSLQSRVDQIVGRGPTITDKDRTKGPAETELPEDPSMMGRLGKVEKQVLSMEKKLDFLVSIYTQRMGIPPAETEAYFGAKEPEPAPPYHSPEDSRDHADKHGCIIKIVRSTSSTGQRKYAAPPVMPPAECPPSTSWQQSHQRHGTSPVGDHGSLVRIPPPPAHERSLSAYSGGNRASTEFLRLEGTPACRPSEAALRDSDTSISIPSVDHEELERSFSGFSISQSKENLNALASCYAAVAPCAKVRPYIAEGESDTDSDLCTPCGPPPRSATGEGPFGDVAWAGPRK
# KCNQ2 enhance baseline: further read-out of KCNQ2 enhance, marked with its call; B-score; compound at 10 µM; measured here: initial fluorescence intensity artifact check;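 brightness before thallium and not channel activity; 0 = typical well and far values either way flag optical interference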
# * = called active by the depositor. These rows are one share of the data; count on the stated rates, not on these rows.
Molecule | KCNQ2 enhance | KCNQ2 enhance baseline
O=C(O)CC/C(=N\Nc1ccc([N+](=O)[O-])cc1)c1ccccc1 | 0.02 | -0.68
COc1ccc(N=CC2=C(O)CCCC2=O)cc1 | 2.4 | 0.4
CCn1ncc(NC(=S)Nc2ccc3c(c2)OCO3)c1C(N)=O | 0.09 | -0.34
CC(CN1CCCCC1)OC(=O)COc1ccc(Cl)cc1 (centres undefined) | 0.07 | 1.4
COc1cccc(NC(=S)N2CCN(S(=O)(=O)c3ccc(F)cc3)CC2)c1 | 0.14 | -0.15
CC(NC(=O)c1ccc2ccccc2n1)c1ccc(S(N)(=O)=O)cc1 (centres undefined) | 0.56 | -1.2
O=C(CC(=O)NN=C1CCCCCC1)NCc1cccnc1 | 0.03 | 0.27
N#C/C(=C/c1ccc(N2CCCC2)c([N+](=O)[O-])c1)c1nc2ccccc2[nH]1 | 0.67 | 0.17
Cc1ccc(NC(=S)NC2CCN(Cc3ccccc3)CC2)cc1C | 0.67 | 0.8
O=C(CCc1ccc(F)c(F)c1)NC1CCCN(Cc2ccc(Cl)cc2)C1 (centres undefined) | 4.5 | -0.55
CN(C)c1nc(Cl)nc(NCCOc2ccccc2)n1 | 5.3 | -0.77
CCC(C)Sc1nc2c(c(=O)[nH]c(=O)n2C)n1Cc1ccc(Cl)cc1 (centres undefined) | 0.83 | 1.4
Cc1cc(NC(=O)CCC(=O)N(CC(=O)NCC2CCCO2)c2cccc(C)c2C)no1 (centres undefined) | 1.2 | -0.37
COc1ccc(-c2cc(C(F)F)n3ncc(C(=O)N4CCN(C(=O)c5ccco5)CC4)c3n2)cc1 | 0.26 | 0.75
COc1ccc(Cl)cc1NC(=O)Nc1ccc(Br)cn1 | 0.15 | 0.16
COc1cccc(Cl)c1NC(=O)N1CCN(c2ccnc3cc(Cl)ccc23)CC1 | 0.04 | -0.79
Cc1ccc(CNC(=O)c2ccc(COc3ccccc3)cc2)cc1 | 0.65 | 0.79
Cc1cccc(C)c1OCc1cc(C(=O)N2CCC[C@H]2C(N)=O)no1 | 1.6 | -1.6
NC(=O)[C@@H]1CCCN1Cc1nc(Cc2ccccc2Cl)no1 | 2 | 0.21
Cc1nc2nc(SCc3nc4ccccc4[nH]3)[nH]c2cc1Br | 0.64 | -0.66
O=C(c1ccc(=O)oc1)N1CCN(c2ccc(F)cc2)CC1 | 0.73 | -0.09
CCOc1ccc(CNC(=O)C2CCN(C(=O)N3CC(C)Oc4ccccc43)CC2)cc1 (centres undefined) | 1.4 | 0.65
Cc1ccc(S(=O)(=O)N(C)CC(=O)N2CCN(C(=O)c3ccco3)CC2)cc1 | 0.35 | -0.13
CC(=O)Nc1ccc(SCC(=O)Nc2cc(C)on2)cc1 | 1.1 | 1
CCOc1ccc(Nc2nc(Cc3nnc(SCC(=O)NC4CCCCC4)n3C)cs2)cc1 | 1.8 | 0.45
Cn1cnnc1-c1cccc(NC(=O)c2cc(F)c(F)cc2Cl)c1 | 0.49 | 0.95
COc1ccc(CNC(=S)Nc2ccccc2)cc1 | 0.44 | -0.02
CNc1nc2[nH]c(=O)c3c(c2s1)OC(N)=C(C#N)C3c1ccccc1 (centres undefined) | 0.46 | 0.17
O=C1CN(S(=O)(=O)c2cccc(Cl)c2Cl)c2ccccc2N1 | 1.2 | -1
CC1CCc2nn(CC(=O)N3CCCCCC3)cc2C1 (centres undefined) | 2.1 | 2
COc1ccccc1OCC(=O)Nc1ccccc1C(=O)NCc1cccnc1 | 0.15 | 3
O=C(O)c1ccccc1SCCS(=O)(=O)c1ccc(Cl)cc1Cl | 1.2 | -0.48
Cc1cccc(C(=O)NNC(=O)CSc2nnc(C(C)C)n2C)c1 | 0.28 | 0.27
COC(=O)c1ccc(S(=O)(=O)N2CCC(C(N)=O)CC2)n1C | 0.27 | -0.28
Cc1c(C(=O)N2CCN(C(=O)c3ccco3)CC2)oc2c(Cl)cccc12 | 1.4 | 0.01
COc1cc(NC(=O)Cn2cnc3ccccc3c2=O)c(OC)cc1Cl | 1.1 | 0.26
O=C(O)/C=C\C(=O)Nc1ccc(N2CCN(c3cccc(Cl)c3)CC2)cc1 | 0.52 | -0.34
Cc1cnc(NC(=O)CSc2nnc3ncccn23)s1 | 0.49 | 3.2
O=C(NCc1ccccc1)NC1CCS(=O)(=O)C1 (centres undefined) | 0.42 | 0.78
O=C(NC(=S)Nc1ccc(N2CCCCC2)c(Cl)c1)c1cccs1 | 6.6* | -0.37*
COc1cc(C(=O)NCCNc2nc3cc(C)ccc3cc2C#N)cc(OC)c1OC | 1.4 | -0.36
CC(C)c1ccc(/C=C2\NC(=O)NC2=O)cc1 | 0.47 | 0.4
Cc1nn(C)c(C(=O)N/N=C/c2cccnc2)c1Br | 0.02 | 2
Cc1ccc(Cl)cc1NC(=O)Nn1cnnc1 | 0.01 | -0.36
Cc1ccc(CNC(=O)CSc2nc(=O)n3ccccc3n2)cc1 | 1.5 | 1.5
Clc1ccc(CON/C=N/c2ncnc3sccc23)c(Cl)c1 | 0.48 | -0.13
O=C(Nc1ccc(Cl)c(Cl)c1)N(CCCN1CCOCC1)Cc1cccnc1 | 0.49 | 1.3
CCOc1ccccc1C(=O)NCCCCNC(=O)c1ccccc1OCC | 0.53 | -2.5
COCCSc1nnc(NC(=O)CCS(=O)(=O)Cc2ccccc2)s1 | 0.1 | 0.79
CCc1cc(=O)oc2cc3oc(C)c(C)c3cc12 | 0.01 | 1.5
CCCCn1c(=N)n(CC(O)c2ccccc2)c2ccccc21 (centres undefined) | 1.5 | 2.2
Cc1nc2ccccn2c1C(=O)N/N=C/c1ccc(CNC(=O)C(=O)Nc2ccccc2)o1 | 0.75 | 1.1
CC(Oc1ccc(Cl)cc1)C(=O)Nc1ccccc1C(=O)N1CCOCC1 (centres undefined) | 1.1 | -0.23
COC(=O)c1ccccc1NC(=O)CSc1nnc(C(CO)NC(=O)c2ccccc2Cl)n1C (centres undefined) | 1.9 | -1.9
O=C(O)C1CCN(C(=O)CSc2nc3ccccc3c(=O)n2-c2ccc(Cl)cc2)CC1 | 0.9 | 0.68
CN1CCN(C=NC2=NN(c3cccc(C(F)(F)F)c3)CC2)CC1 | 0.28 | 0.81
O=C(CN1CCN(Cc2ccccc2)CC1)NC(=O)NCc1ccco1 | 0.18 | 0.51
O=C(CSc1ncccn1)N1CCN(Cc2ccccc2)CC1 | 0.38 | -0.85
Cc1ccc(C2CC(=O)C(C=NCCN3CCN(C(=S)Nc4ccc(F)cc4)CC3)=C(O)C2)cc1 (centres undefined) | 0.02 | -0.12
O=C(CCc1nc(-c2ccccc2F)no1)NCCN1CCOCC1 | 0.86 | 0.42

# (continued)
Molecule | KCNQ2 enhance | KCNQ2 enhance baseline
O=C(CN1N=C(c2ccccc2)CCC1=O)NCCN1CCc2ccccc2C1 | 0.34 | 0.25
O=C(NCCCN1CCCCC1)C1CC(=O)N(CCc2ccccc2)C1 (centres undefined) | 0.4 | 1.7
CCCS(=O)(=O)c1c(S(=O)(=O)CCC)c2ccc(C(N)=O)cn2c1C(=O)c1ccccc1 | 1.4 | -0.01
C=CCc1c(C)nc(SC(C)C)[nH]c1=O | 0.23 | -0.02
Cc1cc(C)n(Cc2ccc(C(=O)NCc3ccco3)o2)n1 | 0.81 | -0.15
CC(C)Cc1nnc(NC(=O)C2CCCC2)s1 | 0.78 | 0.69
COCCNC(=O)C(c1ccc(F)cc1)N(C(=O)CCC(=O)Nc1ccccn1)c1ccc(C)cc1 (centres undefined) | 0.09 | 1
COCCNc1cc(C)nc2c3c(C)cc(C)nc3nn12 | 1.3 | -1.2
COc1ccc(N=C2SC(CC(=O)Nc3ccccc3)C(=O)N2CC2CCCO2)cc1 (centres undefined) | 0.01 | 0.25
CC1CCOC2(O1)C(=O)Nc1ccccc12 (centres undefined) | 0.53 | -0.51
CC(=O)c1cccc(NC(=O)C(C)OC(=O)Cc2n[nH]c(=O)c3ccccc23)c1 (centres undefined) | 2.7 | 0.95
CCN(CC)S(=O)(=O)c1cccc(-c2n[nH]c(=S)n2/N=C/c2ccc(Br)cc2)c1 | 0.02 | -0.15
CCc1nnc(NC(=O)c2ccc(-c3ccc(Cl)cc3)o2)s1 | 0.85 | 0.65
COc1cccc(/C=C2/C(=O)NN(c3ccc(C)c(C)c3)C2=O)c1 | 0.58 | -2
Cc1ccc(OCC(O)CN2CCCC2)cc1 (centres undefined) | 1.4 | -1.6
O=C(O)C1CCCCC1C(=O)NCCc1ccncc1 (centres undefined) | 0.01 | 0.59
CC1C(=O)N2CCCc3cc(NC(=O)C(=O)NCc4ccccn4)cc1c32 (centres undefined) | 0.58 | -0.15
CCOC(=O)c1c(S(=O)(=O)NCc2ccco2)c(C)n(C)c1C | 0.84 | 2.3
CCOc1ccc(N=Nc2c(=O)[nH]n3c(C)cc(C)nc23)cc1 | 0.77 | -0.43
O=C(Nc1ncc(Cc2ccccc2Cl)s1)C1=NCCN1 | 0.02 | 2.3

# Of the compounds above, nine contain fluorine.
Molecule | KCNQ2 enhance | KCNQ2 enhance baseline
COc1cccc(NC(=S)N2CCN(S(=O)(=O)c3ccc(F)cc3)CC2)c1 | 0.14 | -0.15
O=C(CCc1ccc(F)c(F)c1)NC1CCCN(Cc2ccc(Cl)cc2)C1 (centres undefined) | 4.5 | -0.55
COc1ccc(-c2cc(C(F)F)n3ncc(C(=O)N4CCN(C(=O)c5ccco5)CC4)c3n2)cc1 | 0.26 | 0.75
O=C(c1ccc(=O)oc1)N1CCN(c2ccc(F)cc2)CC1 | 0.73 | -0.09
Cn1cnnc1-c1cccc(NC(=O)c2cc(F)c(F)cc2Cl)c1 | 0.49 | 0.95
CN1CCN(C=NC2=NN(c3cccc(C(F)(F)F)c3)CC2)CC1 | 0.28 | 0.81
Cc1ccc(C2CC(=O)C(C=NCCN3CCN(C(=S)Nc4ccc(F)cc4)CC3)=C(O)C2)cc1 (centres undefined) | 0.02 | -0.12
O=C(CCc1nc(-c2ccccc2F)no1)NCCN1CCOCC1 | 0.86 | 0.42
COCCNC(=O)C(c1ccc(F)cc1)N(C(=O)CCC(=O)Nc1ccccn1)c1ccc(C)cc1 (centres undefined) | 0.09 | 1

# Other entries follow:
Molecule | KCNQ2 enhance | KCNQ2 enhance baseline
Cc1c(NC(=O)NC(C)N2C(=O)C3C4C=CC(C4)C3C2=O)c(=O)n(-c2ccccc2)n1C (centres undefined) | 1.2 | 2
C/C(=N\NC(=O)CC(C)C)c1c(C(F)(F)F)[nH]n(-c2nc3ccccc3s2)c1=O | 0.6 | 2.6
CCOC(=O)c1c(-c2ccc(C)o2)csc1NC(=O)CSc1nncs1 | 0.46 | -0.02
CCCCn1c(O)c(C(CC)=Nc2ccc3c(c2)CCC3)c(=O)[nH]c1=O | 0.45 | -1.8
CCn1c(=O)c(C(=O)CN2CCc3ccccc32)c(N)n(Cc2ccccc2)c1=O | 0.01 | -0.23
CN1C(=O)[C@H]2[C@@H](C3CC3)N3C(=O)CN(Cc4ccccc4)C(=O)[C@@]3(C)[C@H]2C1=O | 0.01 | -1.5
Cc1cc2oc(=O)c(CC(=O)NCCCN(C)C)c(C)c2c2occ(C(C)(C)C)c12 | 4.2 | 1.1
CNC(=S)N/N=C1\CC(c2ccccc2)Oc2ccccc21 (centres undefined) | 2.7 | -0.28
COc1ccc(NS(=O)(=O)c2ccc(-c3coc(C)n3)cc2)cc1 | 0.17 | 0.09
CC(NC(=O)c1ccccc1)c1ccc(Br)cc1 (centres undefined) | 0.74 | 0.14
CC(=O)N1CCN(Cc2nc3cc(NS(C)(=O)=O)ccc3n2C)CC1 | 0.14 | 1.6
CCOC(=O)CCNCc1ccc(F)cc1 | 0.46 | 0.35
Cn1c(SCC(=O)Nc2ccc3c(c2)OCO3)nnc1-c1cnccn1 | 0.95 | 0.89
CC1CCN(S(=O)(=O)c2cn(C)c(=O)n(C)c2=O)CC1 | 0.5 | -3.2
CC(=O)OCCCn1c(C)[n+](C)c2cc(Cl)c(Cl)cc21 | 0.44 | -0.03
CCOC(=O)CSc1nnc(COc2ccc3ccccc3c2)o1 | 1.4 | -0.85
COc1ccc(NC(=O)C2=CC(c3ccc(C)cc3)=NS(=O)(=O)N2C)cc1OC | 0.22 | 2.2
N=c1oc2ccccc2cc1-c1nc2ccccc2c(=O)[nH]1 | 2 | -0.55
O=c1cc(-c2ccccc2)[nH]n2cnnc12 | 1.3 | -0.75
COc1ccc(-c2cn3cccc(C)c3n2)cc1F | 1.5 | -0.87
CC(=O)Nc1ccc(NC(=O)CCCN2C(=O)c3ccccc3C2=O)cc1 | 1.7 | -1.4
COc1ccc(C(=O)Nc2ccc(S(=O)(=O)Nc3ncccn3)cc2)cc1OC | 1.3 | -2
CCN(CC)S(=O)(=O)c1ccc(OC)c(NC(=O)c2ccc([N+](=O)[O-])cc2)c1 | 0.48 | -1.4
CCOc1ccc(/C=N/NC(=O)C(=O)NCc2ccco2)cc1 | 0.06 | 1.4
CCCCc1nccn1CCn1ccnc1CCCC | 0.75 | 0.87
Cc1ccc(NC(=O)CN2CCCCCC2)c(Br)c1 | 0.75 | -0.01
CSCCC(NC(=O)c1ccco1)C(=O)O (centres undefined) | 0.49 | 1
CC(=O)Cn1cnc2c(sc3nc(C)cc(C)c32)c1=O | 0.95 | 1.2
COc1ccc(C2CC(=O)C(C=NCCCO)=C(O)C2)cc1 (centres undefined) | 0.51 | 0.85
CCS(=O)(=O)NCc1ccc2c(c1)cc(C)n2C | 0.33 | -0.4
Cc1[nH]c2ccccc2c1/C=N/NC(=O)c1cc(C(C)(C)C)[nH]n1 | 0.85 | -1.5
CCOc1cc(/C=N/NC(=O)c2ccccn2)ccc1OC(=O)c1cccs1 | 0.87 | 0.67
CCn1cc(C(=O)NCCCN2CCCC2)c(=O)c2cc(S(=O)(=O)N3CCc4ccccc4C3)ccc21 | 0.48 | -1.1
O=C(CN1CCOCC1)NNc1nc(-c2ccccc2)c2cc(Br)ccc2n1 | 2.7 | 3.3
CCCn1c(N)c(C(=O)CSc2nc3ccccc3n2CCC#N)c(=O)n(C)c1=O | 0.3 | 0.16
COc1ccccc1CN(C(=O)CNC(=O)c1ccco1)C(C(=O)NCC1CCCO1)c1ccccc1 (centres undefined) | 0.06 | -1.3
